miR-21 reporter – raises the signal of a miR-21 reporter | Potency, µM (highest dose often 38.3 µM), inactives show at the highest dose reporter change, positive = more light | HeLa miR-21 FLuc reporter, luciferase, 48 h | 340,000 tested, under 10 active; active = well fitted rising curve with a large enough effect; inconclusive = small, poorly fitted or top-dose-only effect; inactive = no such curve, though single readings can be large or run the other way;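 note: % of control where 0% means no effect; miR-21 action dims this reporter so a rising signal means less miR-21 action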
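Compounds were titrated across several concentrations (up to approximately 40 uM) and incubated 48 hours with HeLa miR-21-FLuc reporter cells (miR-21 target sequence downstream of FLuc, endogenous miR-21). Readout was firefly luciferase luminescence after lytic detection reagent.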
Rango-impB inh – prevents formation of the Rango-importin beta complex; actives 0.031% (n = 340,000); Rango CFP/YFP FRET sensor + importin beta, 45 min; Q14974; Potency, µM (series often up to 92.2 µM), inactives show top-dose inhibition of complex formation; active = rising FRET ratio curve, often small or poorly fitted; inconclusive = mostly compound fluorescence or quenching in the first reads; inactive = flat curves in all reads;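 note: potency is the fitted concentration of half-maximal effect; 0% = DMSO wells and 100% = buffer wells lacking importin beta; nearly all actives have a fitted effect of over 15% in size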
Target sequence (Q14974 whole entry, looked up): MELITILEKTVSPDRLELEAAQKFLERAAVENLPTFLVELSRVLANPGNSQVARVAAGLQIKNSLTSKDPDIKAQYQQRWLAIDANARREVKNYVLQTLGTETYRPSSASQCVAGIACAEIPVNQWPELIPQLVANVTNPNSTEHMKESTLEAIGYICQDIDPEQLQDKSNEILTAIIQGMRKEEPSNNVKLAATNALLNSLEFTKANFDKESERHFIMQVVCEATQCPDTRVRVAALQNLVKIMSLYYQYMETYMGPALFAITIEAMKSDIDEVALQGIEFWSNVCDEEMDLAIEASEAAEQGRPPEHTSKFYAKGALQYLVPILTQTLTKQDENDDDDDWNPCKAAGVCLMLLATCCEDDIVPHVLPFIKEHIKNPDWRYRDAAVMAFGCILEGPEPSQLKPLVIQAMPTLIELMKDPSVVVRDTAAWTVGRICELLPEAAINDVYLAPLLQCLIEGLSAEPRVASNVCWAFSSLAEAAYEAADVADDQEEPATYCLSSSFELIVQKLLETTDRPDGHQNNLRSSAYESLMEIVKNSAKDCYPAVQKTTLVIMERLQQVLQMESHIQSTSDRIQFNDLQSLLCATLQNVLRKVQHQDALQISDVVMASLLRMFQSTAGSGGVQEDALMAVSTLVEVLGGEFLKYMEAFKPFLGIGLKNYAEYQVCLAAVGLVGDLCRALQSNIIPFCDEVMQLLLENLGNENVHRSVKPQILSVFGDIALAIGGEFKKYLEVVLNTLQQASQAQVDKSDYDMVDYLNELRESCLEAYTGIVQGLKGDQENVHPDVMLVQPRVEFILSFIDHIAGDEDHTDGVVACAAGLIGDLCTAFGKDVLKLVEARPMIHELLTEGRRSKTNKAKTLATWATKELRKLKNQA
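FRET biosensor (snurportin 1 IBB flanked by EYFP and cerulean), 50 nM, with compound 5 min, then 0.125 microM importin beta in PBS, 1 mM DTT, 0.02% Tween-20, 0.1% BSA. CFP/YFP ratio read after 45 min at room temperature; pre-read flags interference.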
Rango dissoc inh – prevents RanGTP from dissociating the Rango-importin beta complex. O95149+P62826. Biochemical FRET Rango-importin beta, RanGTP-induced dissociation. Potency, µM (doses to about 46.1 µM), inactives show at the highest dose activity change, negative = inhibition. actives 0.071% (n = 340,000); active means falling FRET ratio curve, often poorly fitted, with flat reads before Ran was added; inconclusive means other falling curves, or compound fluorescence or quenching; inactive means flat or rising ratio curve;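 note: potency is the fitted concentration of half-maximal effect; % of control where 0% means no effect; nearly all actives have a fitted effect of over 45% in size; -100% = wells without RanGTP and RCC1; the record marks most hits as doubtful in a second field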
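FRET read at 45 min, room temperature: inhibitors block the CFP/YFP signal rise when RanGTP (0.6 uM Ran, 2 mM GTP, 0.2 uM RCC1) frees Rango (0.1 uM) from importin beta (0.25 uM). Pre-read after 5 min compound exposure flags interference.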
GLA inh pH 4.5 – inhibitors of human alpha-galactosidase A at pH 4.5. P06280. purified enzyme, 4-MU-alpha-Gal fluorescence, pH 4.5. activity change, negative = inhibition, % at 105 µM. 230,000 tested, under 10 active. AID 1467; inconclusive = small, poorly fitted or top-dose-only inhibition, or a rising curve; inactive = flat fitted curve, though single readings scatter; no compound was filed as active;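 note: 0% = full activity with enzyme and -100% = basal without enzyme; dose as in the result columns while the protocol names 77 µM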
* marks the source's active call; other numbers are inactive results; ? = inconclusive; nt = not tested or not shown; [ ] = another dose, or the depositor's remark. Not all compounds are listed, so the mix of outcomes need not match the whole.

SMILES	miR-21 reporter	Rango-impB inh	Rango dissoc inh	GLA inh pH 4.5
Cn1cc([N+](=O)[O-])c(C(=O)Nc2ccn(Cc3c(F)c(F)cc(F)c3F)n2)n1	-6%	1.7%	-14%	2
O=C(Cc1ccccc1)NC(Nc1cccc2ccccc12)C(Cl)(Cl)Cl (stereo not drawn)	-2%	-0.6%	5%	10
Cc1cccn2c(=O)c3cc(C(=O)NCCCN4CCCC4=O)n(C)c3nc12	-39%	?	-9%	?
Fc1ccc(CNc2nc(-c3cccnc3)nc3ccccc23)cc1	5%	0.4%	0%	nt
COc1ccc(NC(=O)c2cc3ccccc3cc2OC)cc1	-29%	?	?	nt
O=C(COC(=O)c1ccc(S(=O)(=O)N2CCCCCC2)cc1)NCc1ccc(Cl)cc1	nt	7.6%	?	nt
Cc1ccc(C(=O)NC(=S)N2CCN(C)CC2)cc1	-23%	-1.5%	2%	0
CCc1ccccc1NC(=O)CNC(=O)CNC(=O)Cc1ccccc1	nt	7.2%	0%	nt
Nc1c(-c2nn[nH]n2)cnn1-c1cc(Cl)cc(Cl)c1	-19%	-1.2%	-9%	3
CCCn1c(C(C)Nc2nc(-c3ccc(Cl)c([N+](=O)[O-])c3)cs2)nc2ccccc21 (stereo not drawn)	-6%	1.7%	-2%	nt
COc1ccc(S(=O)(=O)N(C)C)cc1NC(=O)c1ccc2c(c1)NC(=O)C(C)S2 (stereo not drawn)	nt	-0.8%	16%	nt
COc1ccc(C(CNC(=O)COc2ccc(Cl)c(C)c2)N2CCCCC2)cc1 (stereo not drawn)	-5%	-2.0%	-8%	nt
CCOc1ccc(N(Cc2nnc3n2CCCCC3)C(=O)Nc2cccc(C)c2)cc1	0%	-0.3%	7%	5
Cc1cc([N+](=O)[O-])ccc1NC(=O)CN1C2CCC1CC(NC(=O)NC13CC4CC(CC(C4)C1)C3)C2 (stereo not drawn)	5%	2.4%	7%	-6
O=C(O)CC(C(=O)OCCOc1ccccc1)N1CCOCC1 (stereo not drawn)	-1%	4.9%	6%	3
COC(=O)c1ccc2ncccc2c1	-14%	-2.1%	4%	4
CCOc1ccccc1C(=O)NCc1ccc2c(c1)OCO2	-8%	-1.2%	1%	1
CCCCCCCCCn1ccc(=N)cc1	?	-1.1%	12%	0
NS(=O)(=O)c1ccc(Nc2nc(-c3cccc([N+](=O)[O-])c3)cs2)cc1	10%	-0.1%	-4%	2
O=C(Nc1ccc(F)cc1)C1(S(=O)(=O)c2ccc(Cl)cc2)CC1	-2%	-0.8%	-17%	nt

7 of these compounds in a different format:
miR-21 reporter,Rango-impB inh,Rango dissoc inh,GLA inh pH 4.5,Molecule
-6%,1.7%,-2%,nt,CCCn1c(C(C)Nc2nc(-c3ccc(Cl)c([N+](=O)[O-])c3)cs2)nc2ccccc21 (stereo not drawn)
nt,-0.8%,16%,nt,COc1ccc(S(=O)(=O)N(C)C)cc1NC(=O)c1ccc2c(c1)NC(=O)C(C)S2 (stereo not drawn)
-5%,-2.0%,-8%,nt,COc1ccc(C(CNC(=O)COc2ccc(Cl)c(C)c2)N2CCCCC2)cc1 (stereo not drawn)
0%,-0.3%,7%,5,CCOc1ccc(N(Cc2nnc3n2CCCCC3)C(=O)Nc2cccc(C)c2)cc1
5%,2.4%,7%,-6,Cc1cc([N+](=O)[O-])ccc1NC(=O)CN1C2CCC1CC(NC(=O)NC13CC4CC(CC(C4)C1)C3)C2 (stereo not drawn)
-1%,4.9%,6%,3,O=C(O)CC(C(=O)OCCOc1ccccc1)N1CCOCC1 (stereo not drawn)
-14%,-2.1%,4%,4,COC(=O)c1ccc2ncccc2c1

Reformatted: entries from further up
| compound | miR-21 reporter | Rango-impB inh | Rango dissoc inh | GLA inh pH 4.5 |
| --- | --- | --- | --- | --- |
| O=C(Cc1ccccc1)NC(Nc1cccc2ccccc12)C(Cl)(Cl)Cl (stereo not drawn) | -2% | -0.6% | 5% | 10 |
| Cc1cccn2c(=O)c3cc(C(=O)NCCCN4CCCC4=O)n(C)c3nc12 | -39% | ? | -9% | ? |
| Fc1ccc(CNc2nc(-c3cccnc3)nc3ccccc23)cc1 | 5% | 0.4% | 0% | nt |
| COc1ccc(NC(=O)c2cc3ccccc3cc2OC)cc1 | -29% | ? | ? | nt |

The list goes on:
SMILES	miR-21 reporter	Rango-impB inh	Rango dissoc inh	GLA inh pH 4.5
CCOC(=O)C1=C(COC(=O)Cc2ccccc2)NC(=O)NC1C (stereo not drawn)	-2%	-3.1%	-9%	nt
COc1ccc(-n2c(SCC#N)nc3c(sc(=S)n3-c3ccccc3)c2=O)c(OC)c1	-2%	-4.3%	28%	nt
O=C1OC(Sc2ccccc2)(c2ccccc2)c2ccccc21 (stereo not drawn)	nt	0.2%	1%	nt
CCc1ccc(-c2csc(NC(=O)C3CCCO3)c2C(=O)OC(C)C)cc1 (stereo not drawn)	4%	0.8%	8%	5
CC1CC(C)CN(c2ncc3c(n2)CC(c2ccccc2)CC3=O)C1 (stereo not drawn)	-2%	0.6%	-6%	-3
Cc1cc(Cl)ccc1OC(C)C(=O)NN1C(=O)c2ccccc2C1=O (stereo not drawn)	2%	-2.2%	-2%	nt
Cc1noc(C)c1COc1ccc(C(=O)NCc2ccccn2)cc1	-1%	0.1%	7%	4
O=C(Cc1cc(=O)oc2cc(O)ccc12)N[C@@H](Cc1c[nH]c2ccccc12)C(=O)O	3%	?	?	nt
CN(Cc1ccccc1)C(=O)c1cc2cc(F)ccc2[nH]1	-17%	-0.9%	1%	nt
CCN(CC)CCN1C(=O)C(=O)/C(=C(/O)c2ccc(C)cc2)C1c1ccncc1 (stereo not drawn)	-5%	nt	nt	2
Cc1c(N=C2N=C(NC(=O)NC(C)(C)C)c3ccccc32)c(=O)n(-c2ccccc2)n1C	-14%	?	?	-4
O=C(N/N=C/c1ccc(Br)cc1)c1ccc(F)cc1	-48%	4.1%	4%	6
O=C(Nc1ccc(NC(=O)c2cccs2)cc1)c1ccc2c(c1)OCO2	-17%	?	-14%	3
COc1ccc(OC)c(N2C(=O)CCCC2=O)c1	1%	-0.4%	-9%	nt
CC(=O)N1CCN(c2ccc(C(N)=O)cc2[N+](=O)[O-])CC1	4%	0.0%	-2%	-13
CCc1cc2c(=O)nc3n(c2s1)Cc1ccccc1/C3=C(/O)c1cccc([N+](=O)[O-])c1	-2%	?	?	5
Cn1c(=O)c2c(nc(SCC(=O)NCc3ccc4c(c3)OCO4)n2Cc2ccc(Cl)cc2)n(C)c1=O	-3%	-2.9%	12%	1
CC1(C)OC(=O)C(=CNc2ccccc2)C(=O)O1	0%	-1.0%	-6%	5
O=C(COC(=O)c1ccc(S(=O)(=O)N2CCCC2)cc1)Nc1ccccc1	nt	-0.2%	-6%	nt
CCOc1cc(Br)c(COc2ccc(C)nc2[N+](=O)[O-])cc1OCC	10%	-2.1%	0%	nt
COc1ccc(N2C(=O)C3C4C=CC(C4)C3C2=O)c(OC)c1 (stereo not drawn)	-1%	0.3%	1%	0
CCn1c(N)c(C(=O)NC)sc1=S	-4%	8.4%	-1%	-8
Cc1cc(C(=O)COC(=O)c2ccco2)c(C)n1Cc1ccco1	-72%	-1.6%	-9%	5
CC(=O)Nc1ccc(S(=O)(=O)NCC(=O)NNC(=O)c2csc(N3CCOCC3)n2)cc1	nt	1.7%	-2%	nt
COc1cc(NC(=O)CSc2ccccc2)c(C(=O)O)cc1OC	-6%	5.3%	8%	1
O=C(Nc1ccon1)c1nc[nH]c1C(=O)N1CCc2ccccc2C1	nt	?	8%	nt
CCCOc1ccc(CN(CCC#N)C(=S)NC(=O)c2ccccc2)cc1	4%	-0.7%	18%	-4
CC(=O)NC(CC(=O)N1CCCC1)c1ccccc1 (stereo not drawn)	nt	0.2%	1%	nt
Cc1cc(C)c(C#N)c(SCS(=O)c2ccc(C(C)(C)C)cc2)n1 (stereo not drawn)	-1%	0.0%	13%	-7
O=C(O)CC/C(=N\NC(=O)CNC(=O)/C=C/c1ccccc1)c1ccccc1	-1%	-3.8%	-1%	-10
COc1ccc(N(CC(=O)N/N=C/c2cccs2)S(=O)(=O)c2ccc(OC)c(OC)c2)cc1	2%	-0.3%	-2%	1
CCCCN(CC(=O)NCCOC)C(=O)Cn1nnc2ccccc21	0%	-1.0%	1%	0[21.1 µM]
S=c1[nH]nc(Cc2ccccc2)n1-c1ccccc1	-6%	0.0%	-12%	1
CC(C)Cn1c(=O)c2ccccc2c2ccccc2c1=O	0%	-3.7%	-9%	-8
CCCCCOc1ccc(C(=O)NCC(=O)NCC(=O)OCC)cc1	15%	-0.8%	2%	10
Nc1nc2ccccc2n1C(=O)c1cccs1	-35%	-7.3%	14%	-4
COc1ccc(CNC(=O)CN=C2NC(=O)C(c3ccccc3)(c3ccccc3)N2)cc1	-21%	1.2%	15%	-3
CC(=O)OC(C)C(=O)NS(=O)(=O)c1ccc(C)cc1 (stereo not drawn)	-2%	3.6%	28%	1
COc1cccc(N2CCN(C(=O)NC3CCCCC3)CC2)c1	-7%	1.5%	35%	0
COc1cccc(CN2CCSCC2)c1OC	4%	-6.2%	10%	nt
CSc1ncc(Cl)c(C(=O)Nc2ccc(C)c(C)c2)n1	-5%	-3.3%	0%	nt
O=C(Oc1ccc(/C=N/n2cnnc2)cc1)c1cccc([N+](=O)[O-])c1	-3%	2.9%	-9%	-4
O=C(NCc1ccccc1)C(=O)NCC1OCCN1S(=O)(=O)c1ccc(Br)cc1 (stereo not drawn)	8%	0.0%	-2%	nt
O=C(O)Cn1c(=O)c(F)cn(C2CCCO2)c1=O (stereo not drawn)	0%	4.0%	14%	nt
COc1ccc(NC(C)=O)cc1NC(=O)CSc1nnc(-c2ccccn2)n1C	-5%	4.8%	12%	6
CCC1(O)CC(C(=O)OC)=NN1C(=O)c1ccccc1 (stereo not drawn)	4%	0.2%	-5%	4
CC(=O)NCCc1nc(-c2ccc(Cl)cc2)no1	nt	0.8%	-17%	nt
C=CCNC(=O)COCc1cc(-c2ccc3c(c2)OCO3)on1	-34%	-5.9%	7%	nt
COc1ccc(NC(=O)CN(C)C(=O)c2cc3c(s2)CCC3)cc1	nt	-3.8%	-1%	nt
Cc1nc(Nc2ccc(S(N)(=O)=O)cc2)sc1C(=O)Nc1ccccc1	10%	0.4%	9%	-1
CSc1ccc(C(=S)N2CCN(C(c3ccccc3)c3ccccc3)CC2)cc1	-2%	?	-12%	1
CC(=O)/C=C(\C)Nc1ccc(-c2cnc(-c3ccccc3)o2)cc1	-39%	-5.1%	-16%	25
O=C(c1ccccc1NS(=O)(=O)c1ccc(Br)cc1)N1CCOCC1	0%	0.1%	-10%	nt
CC(=O)c1nnn(-c2ccc([N+](=O)[O-])cc2)c1C	1%	2.1%	-1%	3
CCOC(=O)CCS(=O)(=O)c1nc(-c2ccccc2)cc(C(F)(F)F)n1	?	-1.0%	-4%	1
CCOC(=O)C1=C(c2ccccc2)N=C2SCC(=O)N2C1c1cccc(OC)c1 (stereo not drawn)	6%	-1.4%	3%	-2
O=C(NNc1ccc(C(F)(F)F)cc1[N+](=O)[O-])c1ccc(NS(=O)(=O)c2ccc(F)cc2)cc1	20%	0.2%	1%	-4
Cc1ccc(NC(=O)Cn2nnc(C(=O)Nc3ccc(F)c(Cl)c3)c2N)cc1	-11%	0.5%	-4%	nt

Screening results deposited in PubChem by National Center for Advancing Translational Sciences (NCATS).
